Compound activity from PubChem.
MbtI inh = blocks the Mycobacterium tuberculosis siderophore enzyme MbtI; P9WFX0; purified MbtI enzyme, fluorescence intensity read-out; inhibition, %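 (about 17 µg/mL by stock and volumes)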; hit rate 0.89% among 100,000; AID 493033;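 active = above 50% in both replicates, above 80% if mildly self-fluorescent; inactive = the rest, strongly fluorescent compounds included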;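 note: 0% = mean of negative and 100% = mean of positive controls; one replicate is shown; some compounds called inactive have numbers as strong as hits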
Target sequence (P9WFX0 whole entry, looked up): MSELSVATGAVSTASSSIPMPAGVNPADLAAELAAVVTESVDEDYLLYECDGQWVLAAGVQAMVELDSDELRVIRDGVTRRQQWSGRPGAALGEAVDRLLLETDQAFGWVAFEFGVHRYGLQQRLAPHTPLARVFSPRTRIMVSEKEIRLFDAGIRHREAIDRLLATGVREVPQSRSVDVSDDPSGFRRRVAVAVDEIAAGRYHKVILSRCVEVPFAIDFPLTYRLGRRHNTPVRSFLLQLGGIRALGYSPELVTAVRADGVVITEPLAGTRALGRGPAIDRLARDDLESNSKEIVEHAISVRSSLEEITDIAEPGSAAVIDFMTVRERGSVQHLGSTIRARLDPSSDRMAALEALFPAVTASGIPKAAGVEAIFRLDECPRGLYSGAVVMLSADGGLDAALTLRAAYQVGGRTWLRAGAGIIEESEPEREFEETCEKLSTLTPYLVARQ
MenB inh = Mtb MenB enzyme inhibition; P9WNP5; MenB enzyme assay, absorbance read-out; some hits fall short of the stated cut; AID 540299; inhibition, %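 (about 12 µg/mL by stock and volumes)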; hit rate 0.43% among 100,000;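 active = mean of two replicates above 30%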;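 note: 0% = no compound and 100% = wells with inactive enzyme; the first replicate is given; strong numbers were not always called active; inactives centre near -10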
Target sequence (P9WNP5 whole entry, looked up): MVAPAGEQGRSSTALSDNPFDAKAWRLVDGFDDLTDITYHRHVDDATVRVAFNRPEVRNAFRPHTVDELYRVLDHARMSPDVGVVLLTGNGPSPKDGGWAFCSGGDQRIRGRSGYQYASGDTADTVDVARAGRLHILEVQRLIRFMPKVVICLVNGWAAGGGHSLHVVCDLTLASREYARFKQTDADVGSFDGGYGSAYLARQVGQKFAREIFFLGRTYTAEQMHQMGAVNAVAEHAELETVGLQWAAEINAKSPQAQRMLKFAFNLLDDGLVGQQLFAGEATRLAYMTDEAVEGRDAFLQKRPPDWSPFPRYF
Polio RdRp inh = poliovirus RNA polymerase inhibition. % elongation, % (compound at 16.7 µg/mL). P03300. AID 588519. poliovirus polymerase elongation, fluorescence polarization; active compounds read low. hit rate 0.66% among 150,000; in the data active = % elongation below about 90%; note: some results filed as inactive read as strong as hits
Polio RdRp inh intensity = further read-out of Polio RdRp inh, marked with its call; % elongation; measured here: total intensity read-out; formula for this scale not given here;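 total fluorescence in place of polarization; lower means less elongation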
* hit, by the source's call; i = inactive; / = no result given.

SMILES	MbtI inh	MenB inh	Polio RdRp inh	Polio RdRp inh intensity
O=S(=O)(c1ccccc1)N1CCSC1c1ccccc1 (configuration not stated)	-7	-1	96	102
O=C(CSc1ncn(-c2ccccc2)n1)NCCc1ccccc1	-4	9	99	102
CCN1C(=O)N/C(=C/c2ccc(-c3cc(C(=O)O)ccc3Cl)o2)C1=O	9	-19	108	137
CNC(=S)N/N=C/c1ccc(N(C)C)cc1	-54	-6	102	105
COc1ccccc1-c1cc(C(=O)NCc2ccc(F)cc2)no1	104	-14	99	103
COc1ccc(CN(C)C(=O)CN(c2ccc3c(c2)OCO3)S(C)(=O)=O)cc1	10	-8	103	102
Cc1cccc(CCNS(=O)(=O)c2cnc[nH]2)c1	-2	-17	103	101
CC(C)(C)c1ccc(S(=O)(=O)N(CCCN2CCOCC2)Cc2cccs2)cc1	0	-29	99	101
CNN1C(=O)c2cccc3cccc(c23)C1=O	12	7	99	97
COc1ccc(N=Cc2ccncc2)cc1	-21	-29	99	99
COc1ccccc1CNC(=O)c1ccc2c(=O)nc3c(-c4ccccc4)n[nH]n3c2c1	-4	-10	106	107
COc1ccc(-c2nnc(Nc3nc4c(F)cccc4s3)o2)c(OC)c1	106	-25	99	104
CC(=O)Nc1cc2nc3[nH]c(=S)[nH]c(=O)c3nc2cc1C	22	-23	75	134
Cc1cc(N(C(=O)c2ccc3c(=O)n4c(nc3c2)CCCCC4)C(=O)c2ccc3nc4n(c(=O)c3c2)CCCCC4)no1	85	-6	92	98
COc1ccccc1C(=O)Nc1ccccc1N1CCN(C(C)=O)CC1	4	-29	106	101
C/C(=N\N)c1c(-c2ccccc2)c2cc(C)ccc2[nH]c1=O	4	-3	102	101
CC1Sc2ccc(C(=O)Oc3ccc4c(c3)OCO4)cc2NC1=O (configuration not stated)	36	-26	93	88
CC(C)NC(=O)c1cc2n(n1)C(C(F)(F)F)CC(c1cccs1)N2 (configuration not stated)	7	-18	101	104
CC(=O)Nc1sc2c(c1C(=O)O)CCC2	3	-24	103	107
C=CCN(Cc1nc(-c2ccc(Cl)cc2)no1)C(C)=O	-5	-9	102	100
COc1ccc(C(=O)Nc2cccc(S(C)(=O)=O)c2)cc1	-20	-4	103	101
O=C1NC(c2cccs2)Nc2ccccc21 (configuration not stated)	108	-22	103	91
CCNC(=O)c1ccc(OC)c(OC)c1	-9	-30	102	98
CCOC(=O)c1ccc(Oc2nc(NC(C)(C)C)nc(N(C)C)n2)cc1	-5	-30	99	94
CCSc1nc2c(c(=O)n1-c1cc(C)cc(C)c1)SCC2	-2	-35	107	99
(cont.)
SMILES	MbtI inh	MenB inh	Polio RdRp inh	Polio RdRp inh intensity
Cc1ccc(S(=O)(=O)CCC(=O)OCc2c(C)noc2C)cc1	-5	-7	96	91
NC(=O)CS(=O)(=O)c1cn(CC(=O)N2CCOCC2)c2ccccc12	-1	-17	102	104
O=S(=O)(c1ccc(OC(F)(F)F)cc1)N1CCNCC1	15	11	104	106
CCCC1(CCC)NC(=O)NC1=O	-6	-5	107	99
O=C(OCc1nc2ccccc2[nH]1)C12CC3CC(CC(C3)C1)C2	-7	-2	100	93
CCOc1ccccc1NC(=O)N1CCOc2ccc(C)cc21	7	-20	103	103
O=C(COC(=O)c1ccc2c(c1)OCO2)c1ccccc1	-4	-12	107	108
CC(Cc1ccccc1)N/C=C1/CC(=O)NC1=O (configuration not stated)	8	-15	106	109
COC(=O)c1ccc(-c2ccc(/C=N/NC(=O)CC3(C)OCCCO3)o2)cc1	-41	-16	102	104
Cc1sc2ncn(C(C)C(=O)OC3CCCCC3)c(=O)c2c1C (configuration not stated)	-10	-43	105	103
Cc1ccc2nc(-c3nc4ccccc4s3)sc2c1	78	-23	96	92
O=C(CSc1ccccc1)Nc1ccc(NC(=O)c2ccco2)cc1	10	2	101	105
O=C(Cc1ccccc1)NCCN1CCOCC1	/	-25	105	106
CN(C)S(=O)(=O)c1ccc(SCC(=O)NN2C(=O)NC3(CCCCC3)C2=O)nc1	2	-6	99	105
Cc1ccc(CSc2ncn(-c3ccccc3)n2)cc1	10	-7	100	98
CN1CCC(N(C)S(=O)(=O)c2ccc(C(=O)NN)cc2)CC1	-21	-55	95	95
O=C(CSc1nnc(CNC(=O)c2ccccc2)o1)c1ccccc1	11	7	98	97
O=C(CC1OC(=O)c2ccccc21)NC1CC1 (configuration not stated)	4	-18	107	101
CCOC(=O)c1ccc(NS(=O)C23CC4CC(CC(C4)C2)C3)cc1 (configuration not stated)	-7	-4	/	/
Cc1cc(C)cc(NC(=O)CN2C=NS(=O)(=O)c3ccccc32)c1	8	1	103	100
CC/C(Cc1ccccc1)=N\NC(=O)c1cccnc1	-7	9	102	111
CC1=C/C(=N\Nc2nncc3ccccc23)CC1	7	-47	106	107
COC(CNC(=O)c1cc2c(s1)-c1ccccc1OC2)OC	104	-6	100	105
O=C1OC(c2ccc(Br)o2)=N/C1=C/c1ccco1	11	-31	99	102
C(=Nc1ccccc1)c1ccccc1	-13	7	100	112

Compound profiles (already shown). Values in the order: MbtI inh	MenB inh	Polio RdRp inh	Polio RdRp inh intensity
O=C1OC(c2ccc(Br)o2)=N/C1=C/c1ccco1 is listed with 11	-31	99	102
O=S(=O)(c1ccc(OC(F)(F)F)cc1)N1CCNCC1 is listed with 15	11	104	106
O=C(OCc1nc2ccccc2[nH]1)C12CC3CC(CC(C3)C1)C2 is listed with -7	-2	100	93
CCOC(=O)c1ccc(NS(=O)C23CC4CC(CC(C4)C2)C3)cc1 (configuration not stated) is listed with -7	-4	/	/

The list goes on:
SMILES	MbtI inh	MenB inh	Polio RdRp inh	Polio RdRp inh intensity
COc1ccc(CN2CCC(=O)NC2=O)cc1C	11	8	101	101
O=C(CN1N=C(c2ccccc2)CCC1=O)NC1CCCC1	-9	-35	103	102
CCN(CC)CCNC1CCN(C)CC1	/	10	109	112
O=C(NC1CCCC1)c1cc2sccc2n1Cc1ccccc1	-11	-1	104	101
NC(=O)NCc1ccc2[nH]c3c(c2c1)CCCC3	-135	-8	98	104
COc1ccc(C)cc1S(=O)(=O)NC(C)(C)C	3	-16	100	99
CC1CN(C(=O)COC(=O)C23CC4CC(CC(C4)C2)C3)CC(C)O1 (configuration not stated)	-6	/	101	103
CC(Sc1ccccc1F)C(=O)Nc1ccc(S(N)(=O)=O)cc1 (configuration not stated)	-52	-18	103	109
Cc1cc(-n2c(C)cc(C(=O)CSc3ccc4c(c3)OCCO4)c2C)no1	-3	-44	104	106
O=C1Cc2cccc3cccc1c23	i	-5	97	100
CCN(CC(=O)NC1CCS(=O)(=O)C1)C(=O)c1cc(C)on1 (configuration not stated)	5	-11	98	100
O=C(O)CSc1nc2cc(Cl)ccc2n1Cc1ccccc1	8	/	101	105
CN(C)CCN(C)Cc1cccc(C(F)(F)F)c1	-20	-17	101	103
CC(c1ccccc1)C1CC(=O)N(Cc2ccco2)C1=O (configuration not stated)	-2	-91	103	97
CCc1ccc(OCC(=O)N2CCCCC2)cc1	-1	25	101	101
O=C(OCCN1C(=O)c2ccccc2C1=O)c1ccc(S(=O)(=O)NCc2ccco2)cc1	7	-11	104	110
Cc1csc(N(C(=O)Cn2nnc3ccccc32)c2ccccc2)n1	-14	-10	105	115
Cc1c(C(=O)N2CCOCC2)c(S(=O)(=O)NCCc2ccc(Cl)cc2)c(C)n1C	-4	-27	105	99
CN1C(=C(C#N)C(=O)COc2ccc(F)cc2Cl)N(C)c2ccccc21	-1	-15	104	113
O=C(NCCCO)c1cc2ccccc2oc1=O	85	-27	101	102
O=C(CCCc1nc2ccccc2s1)NC1CCOC1=O (configuration not stated)	1	-11	102	102
CC(OC(=O)Cn1cc(C(F)(F)F)ccc1=O)C(=O)Nc1ccc2c(c1)OCO2 (configuration not stated)	3	-24	99	96
COc1ccc(N(C)C(=O)c2ccc3c(c2)nnn3C)cc1	-3	-25	104	100
CCOC(=O)C(O)(C1C(=O)CC(C)(C)CC1=O)C(F)(F)F (configuration not stated)	-3	-38	101	102
CCOC(=O)COc1ccc2c(=O)c(-c3cscn3)coc2c1	6	-20	99	93

In the list so far, these contain a COOH group.
SMILES	MbtI inh	MenB inh	Polio RdRp inh	Polio RdRp inh intensity
CCN1C(=O)N/C(=C/c2ccc(-c3cc(C(=O)O)ccc3Cl)o2)C1=O	9	-19	108	137
CC(=O)Nc1sc2c(c1C(=O)O)CCC2	3	-24	103	107
O=C(O)CSc1nc2cc(Cl)ccc2n1Cc1ccccc1	8	/	101	105

Gathered by group, the compounds so far containing a tert-butyl group.
SMILES	MbtI inh	MenB inh	Polio RdRp inh	Polio RdRp inh intensity
CC(C)(C)c1ccc(S(=O)(=O)N(CCCN2CCOCC2)Cc2cccs2)cc1	0	-29	99	101
CCOC(=O)c1ccc(Oc2nc(NC(C)(C)C)nc(N(C)C)n2)cc1	-5	-30	99	94
COc1ccc(C)cc1S(=O)(=O)NC(C)(C)C	3	-16	100	99

Remaining list, next part
SMILES	MbtI inh	MenB inh	Polio RdRp inh	Polio RdRp inh intensity
CC(=O)Nc1c(C(=O)c2ccc(F)cc2)oc2ccccc12	1	64*	100	100
CCCN1CCC[C@@H]2Cc3[nH]ncc3C[C@H]21	-7	4	100	102
CC1OCC/C1=N/OC(=O)Nc1c(Cl)cccc1Cl (configuration not stated)	-5	-1	104	102
Fc1ccc(C2=NN(C(=S)NCc3ccccc3)CCC2)cc1	-3	-22	104	106
O=C(O)C1=C(Nc2ccccc2)OCC1=O	14	-11	101	98
CC1(C)CC(=O)/C(=N/Nc2ccccc2)CO1	-6	-177	101	104
NNc1nc(C(F)(F)F)nc2c1cnn2Cc1ccccc1	3	-4	106	101
O=S(=O)(NCc1ccccc1)c1ccc(N2CCCCS2(=O)=O)cc1	-9	-7	98	100
O=C(CCN1C(=O)/C(=C\c2ccco2)SC1=S)Nc1ccccc1	13	-57	100	112
O=C(c1csc2c1CCCC2)N1CCCCC1	-1	/	103	103
COc1cc(CNCCN2CCOCC2)cc(Cl)c1OCC(N)=O	-8	-14	104	101
Cc1ccccc1Cc1c(C)[nH]c2nc3ccccc3n2c1=O	/	-10	104	105
Cc1ccc(C)c(NCc2cc(=O)n3ccsc3n2)c1	5	-3	100	100
Cc1ccc(C(=O)CC(NCCc2c[nH]c3ccccc23)C(=O)O)cc1 (configuration not stated)	/	47*	103	99
O=C(NCc1ccc2c(c1)OCO2)C(=S)N1CCCCC1	-6	-37	102	100
O=C(O)CCC(=O)Nc1cccc(-c2nc3ccccc3[nH]2)c1	109	-13	105	105
CCCC(=O)n1c(=S)oc2cc(Cl)ccc21	/	-11	95	99
CCCn1c2ccccc2c2nnc(SCC(=O)NC(C)c3ccccc3)nc21 (configuration not stated)	/	-1	99	98
Cc1cc(NC(=O)CSc2nc3ccc(N4CCOCC4)cc3c(=O)n2CCc2ccccc2)n[nH]1	-112	-5	100	101
CCCCCn1c(N2CCOCC2)nc2c1c(=O)n(CC(N)=O)c(=O)n2C	10	3	101	100
CSc1nc2ccccc2c(=O)n1Cc1ccc(F)cc1	4	2	101	98
Nn1c(COc2cccc(Br)c2)nnc1SCC(=O)NCc1ccccc1	10	-32	103	107
COc1cccc(CNc2ccc3c(c2)ncn3C2CCCCC2)c1	-6	-3	100	103
CCCc1cc(C(=O)N2CCCN(C)CC2)cs1	-13	5	100	102
CC(C)C(NC(=O)CSc1nnc(-c2ccc(F)cc2)o1)c1nc2ccccc2[nH]1 (configuration not stated)	-11	0	103	108
(listing goes on)
SMILES	MbtI inh	MenB inh	Polio RdRp inh	Polio RdRp inh intensity
COc1ccc(CC(=O)NCC(C)(C)N2CCOCC2)cc1	2	2	/	/
Cc1cc(C)c2nc(SCC(=O)c3ccco3)cc(C)c2c1	40	-28	103	96
O=C(/C=C/c1cccs1)NC(=S)NCc1ccccc1	0	-7	100	103
O=C(O)c1cc(C2CCCCC2)no1	3	-8	102	103
Cc1ccc(C)c(-n2ccn(CC#N)c(=O)c2=O)c1	-6	-21	105	102
CCO/C(C)=C(\C#N)C(N)=O	-4	14	99	98
Cc1noc(C)c1S(=O)(=O)Nc1ccc(N2CCN(C(=O)OC(C)(C)C)CC2)nc1	-12	-7	101	105
c1ccc2sc(Nc3nc4cc5c(cc4s3)OCO5)nc2c1	59	-49	103	105
CC1=C(C#N)C(=O)N(CC(C)O)C(=O)/C1=C/c1ccc(-c2ccc(C(=O)OC(C)C)cc2)o1 (configuration not stated)	13	4	101	102
COc1cc(Br)c(CC(=O)OCc2nc(N)nc(Nc3ccc(C)cc3)n2)cc1OC	-7	-22	109	109
CCOC(=O)c1cnc(Nc2nc3ccccc3s2)nc1C	-5	12	99	102
Cc1cc(Cl)ccc1NNC(=O)c1snnc1C	12	14	99	95
CCOC(=O)NN1C(=O)c2ccccc2NC12CCCCC2	115	7	101	100
Cc1ccc(OCCN2CCN(c3cc(C)c(C#N)c4nc5ccccc5n34)CC2)cc1	-10	-12	103	108
CC1Cc2ccccc2N1C(=O)c1nc2ccccc2s1 (configuration not stated)	-7	-7	102	101
CC1=NN(c2ccc(C)c(C)c2)C(=O)/C1=C/c1ccc(N2CCOCC2)cc1	-14	-37	100	103
COc1ccc(S(=O)(=O)Nc2ccc(C(=O)Nc3nccs3)cc2)cc1	-154	-24	103	100
CCc1cccc(NC(=O)C(CC(C)C)NC(=O)C2CCCCC2)c1 (configuration not stated)	-2	-6	103	107
O=C(NC(=S)NCc1ccco1)c1ccc(-c2ccccc2)cc1	3	-67	101	104
Cc1ccc(S(=O)(=O)c2nc(-c3ccccc3)oc2NCCN2CCOCC2)cc1	-10	-38	102	101
CCOC(=O)N1CCN(S(=O)(=O)c2cc(Cl)c(C)cc2OCC)CC1	-31	-16	100	101
COc1ccc2nc(SC)c(C#N)cc2c1	-5	-44	102	103
CSc1sc(Cl)c2c1/C(=N\O)CC(C)(C)C2	-10	-9	103	113
